Bioassay records deposited in PubChem by National Center for Advancing Translational Sciences (NCATS).
Cruzain inh Det: blocks cruzain activity in presence of Triton detergent; AID 1478; Potency, µM, for inactives: max response, negative = inhibition, hits mostly inhibitors; hit rate 0.43% among 200,000; purified cruzain, Z-FR-AMC fluorescence, 0.01% Triton; P25779; active = well fitted curve in the direction sought with a large enough effect; inconclusive = small, poorly fitted or top-dose-only effect, or another doubt; inactive = no such curve, though single readings can be large; an effect the other way counts as inactive or inconclusive;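 also: plate controls were neutral wells for no effect and buffer without enzyme for full effect; nearly all actives have a fitted effect of over 40% in size; top concentration of the series not given in the record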
Target sequence (P25779 123-467 limits assumed): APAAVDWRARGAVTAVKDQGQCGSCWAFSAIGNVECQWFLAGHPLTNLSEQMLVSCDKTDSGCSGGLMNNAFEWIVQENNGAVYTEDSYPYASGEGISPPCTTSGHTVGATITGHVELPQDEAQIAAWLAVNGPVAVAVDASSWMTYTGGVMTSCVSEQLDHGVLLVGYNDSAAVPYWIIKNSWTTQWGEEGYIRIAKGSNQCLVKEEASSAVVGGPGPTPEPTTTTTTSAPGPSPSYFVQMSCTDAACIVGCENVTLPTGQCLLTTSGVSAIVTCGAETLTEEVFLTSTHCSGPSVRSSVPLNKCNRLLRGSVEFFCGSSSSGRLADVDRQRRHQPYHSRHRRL
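Detergent-containing arm of a paired screen for aggregation-based inhibition: 0.01% Triton X-100 present. Cruzain at 1.5 nM cleaved 2 uM Z-FR-AMC at pH 5.5 with 5 mM DTT; AMC fluorescence gain over 60 s measured activity.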
SARS PLpro yeast: inhibitors of SARS-CoV papain-like protease in yeast | S. cerevisiae expressing SARS-CoV PLpro, growth rescue; control for the full effect not named in the record | Potency, µM (titrated, usually from 32.9 µM), without a hit: at the top dose activity, positive = growth rescue | hit rate 0.19% among 330,000; also: 0% is about no effect; nearly all actives have a fitted effect of over 55% in size; growth read by luminescence after 48 h
LASV entry inh: blocks Lassa virus binding to or entry into cells; Lassa virus pseudotype entry inhibition, cell reporter; control for the full effect not named in the record; Potency, µM (series often up to 37.9 µM), for inactives: top-dose activity change, negative = inhibition, hits mostly inhibitors; hit rate 1.2% among 300,000; AID 540256; active means well fitted inhibition curve with a large enough effect; inconclusive means small, poorly fitted or top-dose-only effect, or effect the other way; inactive means flat fitted curve, though single readings scatter; tested in HEK293 cells; also: % is scaled to controls: 0 for no effect and ±100 for the full control effect; nearly all actives have a fitted effect of over 50% in size; luciferase read-out
Cruzain noTriton: inhibitors of Trypanosoma cruzi cruzain without detergent | AID 1476 | purified cruzain, Z-FR-AMC fluorescence, no detergent | hit rate 2.3% among 200,000 | Potency, µM, for the others: max response, negative = inhibition, hits mostly inhibitors; active = well fitted curve in the direction sought with a large enough effect; inconclusive = small, poorly fitted or top-dose-only effect, or another doubt; inactive = no such curve, though single readings can be large; an effect the other way counts as inactive or inconclusive;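 also: plate controls were enzyme without inhibitor for no effect and buffer without enzyme for full effect; nearly all actives have a fitted effect of over 40% in size; top concentration of the series not given in the record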
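Detergent-free condition (0.00005% Triton X-100) in acetate buffer pH 5.5 with DTT. 1.5 nM enzyme and compound were pre-mixed 15 min, then 2 uM Z-FR-AMC substrate added; reaction progress from fluorescence change between first and third reads (60 s).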
RE007 growth inh: less growth of the S. pombe RE007 Vpr strain | S. pombe RE007 Vpr strain, BacTiter-Glo ATP luminescence, 24 h; control for the full effect not named in the record | Potency, µM (highest dose often 92.2 µM), for the others: top-dose activity change, negative = less growth | hit rate 0.21% among 360,000 | AID 651644; active = well fitted falling curve with a large enough effect; inconclusive = small, poorly fitted or top-dose-only effect; inactive = no such curve, though single readings can be large or run the other way;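 also: % is scaled to controls: 0 for no effect and ±100 for the full control effect; nearly all actives have a fitted effect of over 50% in size; the assay follows cell death caused by Vpr and the record does not say whether a fall means rescue or toxicity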
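Fission yeast strain RE007, carrying one chromosomally integrated HIV-1 vpr copy, was seeded at OD 0.01 in PMG+AL medium with 23 nL pinned compound. After 24 h at 30 °C and 99% humidity, viability was read by BacTiter-Glo luminescence.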
StopGo reporter: lowers the luciferase signal of an FMDV 2A StopGo reporter. human cells with a luciferase reporter of 2A StopGo recoding; control for the full effect not named in the record. Potency, µM (titrated, usually from 57.9 µM), for inactives: at the top dose signal change, negative = less light. hit rate 1.2% among 410,000. AID 1159524; active = well fitted falling curve with a large enough effect; inconclusive = small, poorly fitted or top-dose-only effect; inactive = no such curve, though single readings can be large or run the other way; tested in HEK293T cells; also: % is scaled to controls: 0 for no effect and ±100 for the full control effect; nearly all actives have a fitted effect of over 45% in size; luciferase light after 4 h
Marburg entry inh: inhibitors of Marburg virus binding or cell entry; Marburg virus pseudotyped entry inhibition, cell reporter; control for the full effect not named in the record; about a third of the inactives were read at about 46 µM; Potency, µM (doses to about 37.8 µM), inactives show top-dose activity change, negative = inhibition, actives largely listed as inhibitors; hit rate 1.8% among 300,000; active = well fitted inhibition curve with a large enough effect; inconclusive = small, poorly fitted or top-dose-only effect, or effect the other way; inactive = flat fitted curve, though single readings scatter; tested in HEK293 cells; about a fifth of its hits are not listed in these tables; also: % is scaled to controls: 0 for no effect and ±100 for the full control effect; luciferase read-out
NS1 inh: inhibitors of influenza NS1 protein function; S. cerevisiae slowed by influenza A NS1, growth recovery by OD600; Potency, µM (highest dose often 46.1 µM), inactives show top-dose activity, positive = more growth; hit rate 0.4% among 270,000; AID 2326; also: actives are rising curves; nearly all actives have a fitted effect of over 50% in size
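Recovery from NS1-induced slow growth read by OD600 in budding yeast switched to galactose assay medium (pH 6.0, -URA) at 1:100 dilution. Compound 23 nl per well; the matching strain lacking NS1 serves as control.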
* marks the source's active call; other numbers are inactive results; ? = inconclusive; . = no result given; & = joins results of further samples; [ ] = dose if it differs, or a comment. Unless noted, calls follow the shape of the dose curve; as a rule, active means well fitted rising curve with a large enough effect; inconclusive means small, poorly fitted or top-dose-only effect; inactive means no such curve, though single readings can be large or run the other way. Potency is read from the fitted curve at half-maximal effect. Outcome played no part in choosing rows (roughly 4.7% active in at least one column).

SMILES	Cruzain inh Det	SARS PLpro yeast	LASV entry inh	Cruzain noTriton	RE007 growth inh	StopGo reporter	Marburg entry inh	NS1 inh
Cc1ccc(S(=O)(=O)Nc2ccc3c(c2)nc(CCN2CCCCC2)n3C)cc1	.	2%	7%	.	-16%	9%	?	5%
Cc1noc(C)c1S(=O)(=O)Nc1ccc(C(=O)N2CCc3ccccc3C2)cc1	1.5%	-3%	21%	14%	-5%	23%	12%	-57%
CCN(CC)S(=O)(=O)c1cccc(NC(=O)c2cccc(S(=O)(=O)N3CCCC3)c2)c1	.	-4%	?	.	5%	?	?	.
CSc1nsc(SCC(=O)N2CCc3ccccc32)n1	-2.0%	2%	18%	-7%	?	0%	6%	3%
CCc1nnc(NC(=O)CCC(=O)Nc2ccc(OC)cc2OC)s1	.	17%	.	.	-2%	-9%	.	?
CCN(CC)CCNC(=O)C(=O)NCC(c1cccnc1)N1CCN(c2ccc(F)cc2)CC1 (stereo not given)	-1.7%	.	16%[46.1 µM]	-15%	.	-15%	.	.
COc1nc2c(C)cccc2cc1-c1noc(-c2ccco2)n1	4.7%	4%	13%	-2%	2%	28%	?	4%
CCCCc1nc2n[nH]c(N)c2c2c1CSC(C)(C)C2	-2.6%	-7%	-8%	3%	0%	-30%	?	11%
Cc1cc(C)c2c(N)c(C(=O)NCc3ccco3)sc2n1	-12%	-16%	?	-22%	-18%	54%[activator]	-4%&-4%	6%
O=C(CCCC(=O)N(CC(=O)NC1CCCC1)c1ccc(F)c(Cl)c1)Nc1ccccn1	.	0%	.	.	-3%	8%	?	-18%
O=C(c1ccncc1)N1N=C(C2CCCCC2)CC1(O)C(F)(F)F (stereo not given)	.	2%	-2%	.	6%	2%	?	.
COc1ccc(CNC(=O)C(c2ccc(C)cc2)N(Cc2cccs2)C(=O)c2ccc3c(c2)OCCO3)cc1 (stereo not given)	-2.5%	0%	?	-1%	3%	?	12µM*	?
Cc1ccc(C)c(S(=O)(=O)Nc2ccc3scnc3c2)c1	-4.1%	-2%	?	-13%	25%	46%[activator]	?	8%
Cc1cc(OC(F)F)ccc1NC(=O)Nc1ccc2c(c1)OCO2	.	?	.	.	0%	32%[activator]	.	6%
O=C(Cn1cnc2c(nnn2Cc2ccccc2F)c1=O)NCc1ccco1	5.8%	6%	0%	-7%	3%	3%	-8%	-7%
COc1ccc(-n2c(-c3cccc(C)c3[N+](=O)[O-])n[nH]c2=S)cc1	0.1%	8%	-4%	-5%	-8%	-1%	-1%	7%
Cc1c(NC(=S)N/N=C\c2ccccc2O)c(=O)n(-c2ccccc2)n1C	-6.5%	3%	-19%	-17%	-3%	18%	-17%	7%
CC(=O)N1[C@H](C)C=C[C@]1(Cc1ccccc1)C(=O)O	-0.1%&-1.0%	?	4%	1%&-3%	10%	?	-6%	9%
Cc1c(NC(=O)c2cc3ccccc3c(=O)s2)c(=O)n(-c2ccccc2)n1C	1.7%	-8%	.	7%	0%	2%	.	-1%
CCCCNc1ncnc2c1cnn2Cc1ccc(Cl)cc1	.	0%	.	.	-14%	-5%	.	-34%
O=C(CSc1nnc(-c2ccc3c(c2)OCO3)o1)Oc1ccccc1	-2.6%	.	9%[46.1 µM]	2%	.	-28%	14%[46.1 µM]	.
Cc1noc(C)c1Cn1nc(C(=O)O)c2ccccc2c1=O	2.0%	6%	-1%	2%	-2%	-16%	1%	-2%
Cc1ccc(C(=O)N/N=C/c2ccc(-c3cccc(C(F)(F)F)c3)o2)cn1	.	-3%	?	.	6%	32µM*	?	1%
O=C(Cn1ccc(C(F)(F)F)n1)NNC(=O)c1cccnc1	.	-7%	.	.	-7%	1%	.	8%
Cc1sc2ncn(CC(=O)NCC(=O)N3CCN(c4ccc(F)cc4)CC3)c(=O)c2c1C	.	1%	10%[46.1 µM]	.	1%	-17%	9%[46.1 µM]	?
Brc1cc(-c2ccccc2)nc(-c2ccccc2)n1	.	.	-17%	.	11%	-5%	20%[46.1 µM]	.
N#C/C(=N\Nc1cccc([N+](=O)[O-])c1)C(=O)c1ccc(Br)cc1	.	-3%	.	.	1%	?	?	.
C/C(CC(=O)N(C(C)C)C(C)C)=N\NC(=O)c1ccccc1Br	1.4%	13%	-1%	3%	7%	-25%	?	-1%
CCC(C)NS(=O)(=O)c1ccc(OCC(=O)N2CCCC2)cc1 (stereo not given)	1.2%	14%	10%	6%	-6%	.	5%	15%
COc1ccc2c(c1)sc1nc(-c3ccccc3)cn12	-10%	-14%	0.5µM*	-3%	?	7.9µM*	0.71µM*	-122%
COc1ccccc1CNC(=O)C(NS(=O)(=O)c1ccc2c(c1)OCCO2)C(C)C (stereo not given)	-1.2%	19%	-2%	-2%	-7%	5%	?	9%
COc1cccc(OC)c1C(=O)Nc1nc2cc3c(cc2s1)OCO3	.	-1%	23%[46.1 µM]	.	9%	-19%	0%[46.1 µM]	3%
CC(=O)c1ccc(OCC(O)CN2CCN(Cc3ccc4c(c3)OCO4)CC2)cc1 (stereo not given)	1.8%	5%&2%	.	-5%	2%&6%	-19%&-5%	0%	-1%&2%
O=S(=O)(c1ccc(-c2csc(Nc3ccc(F)cc3)n2)cc1)N1CCCC1	-3.3%	8%	?	?	17%	?	?	10%
COc1ccc(CS(=O)(=O)CC2(O)CCN(C(=O)c3cccc(C(F)(F)F)c3)CC2)cc1	.	1%	-8%	.	17%	20%	-3%[46.1 µM]	.
Cc1ccc(NC(=O)c2ccc(Cl)c(S(=O)(=O)N3CCCCCC3)c2)nc1	.	0%	-30%	.	-12%	?	-18%[46.1 µM]	.
O=C(CCNC(=O)c1ccccc1)NN=Cc1ccc(Br)o1	.	-21%	-7%[46.1 µM]	.	3%	-1%	-20%[46.1 µM]	.
CCC(C)NC(=O)C1CCN(S(=O)(=O)c2ccc(-n3cnnn3)cc2)CC1 (stereo not given)	.	1%	1%[46.1 µM]	.	7%	-10%	-5%[46.1 µM]	-4%
COc1ccc(CCC(=O)OCC(=O)c2ccc[nH]2)cc1OC	.	3%	11%	.	-13%	0%	10%	.
C=CCN1C(=O)/C(=C/c2cc(C)n(-c3ccccn3)c2C)C(=O)NC1=S	-3.4%	-4%	1%	0%	-9%	?	-22%	19%
CN(C)c1nccc(N(Cc2ccccc2)Cc2ccccc2)c1C#N	-7.0%	-39%	0%	4%	16%	-17%	-19%	-34%
CC(C)(C)NC(=O)CSc1n[nH]c(=O)n1-c1ccccc1	5.4%	0%	0%	-5%	0%	-1%	-1%	-3%
COc1ccc(OC)c(N2C(=O)CC(Cc3cc(C)cc(C)c3)C2=O)c1 (stereo not given)	4.9%	0%	7%	?	-8%	?	-2%	5%
Cc1ccc(NC(=O)c2cnc3ccccc3n2)cc1C	.	0%	-13%	.	-2%	15%	4%[46.1 µM]	-5%
Nc1cccc(O)c1	1.9%	0%	.	-2%	-1%	-13%	.	.
O=C(Nc1ccc(F)cc1)c1sc2cc(C(F)(F)F)cnc2c1-c1cccs1	-0.3%	-7%	2%	25µM*	4%	0%	-29%	10%
Cc1ccc2nc(Nc3nc(C)cc(C(F)(F)F)n3)nc(C)c2c1	-7.6%	4%	8%	0%	-1%	-21%	?	4%
COc1cc2cc(Oc3ccc4ccc(=O)oc4c3)c(=O)oc2cc1O	-1.5%&-14%	7%	22%	-4%&-9%	3%	-3%	2%&2%&2%&2%	-16%
CC(C)[C@H](NC(=O)Nc1cccc(C(F)(F)F)c1)C(=O)O	-0.5%	-5%	5%	0%	16%	4%	-1%	-3%
Cc1ccccc1CC(=O)Nc1ccc(C(=O)N2CCCC2)cc1	.	-6%	.	.	-9%	0%	.	6%

(listing goes on)
SMILES	Cruzain inh Det	SARS PLpro yeast	LASV entry inh	Cruzain noTriton	RE007 growth inh	StopGo reporter	Marburg entry inh	NS1 inh
CCC1CCCCN1CCCNC(=O)CCC(=O)N1CCOc2ccccc21 (stereo not given)	.	-2%	.	.	11%	-18%	.	2%
CC(C)(C)c1ccc(-c2nnc(N)o2)cc1	.	0%	-9%	.	34%	25%	12%[46.1 µM]	-1%
COc1cc(/C=C(\C#N)C(=O)c2c(C)[nH]c3ccccc23)cc(OC)c1OC	-7.6%	5%	9%	?	1%	-13%	24%	7%
O=C(/C=C/c1ccc2c(c1)OCCCO2)c1ccccc1O	-4.2%	-34%	5%	2%	-6%	-9%	?	-32%
CN(CC(=O)O)Cc1oc(CO)cc(=O)c1O	5.0%	.	25%	-19%	-5%	0%	11%	-3%
Cc1ccc(-c2nnc(SCC(=O)N/N=C/c3c(C)nn(-c4ccccc4)c3C)n2-c2ccccc2)cc1	-4.5%	?	?	19%	.	-25%	?	19%
O=[n+]1c2c(n([O-])c3ccccc31)CCCC2	-0.9%	-9%	-22%	-5%	6%	-14%	-3%	-4%
COc1cc(NC(=O)COC(=O)CNC(=O)C2CCCCC2)cc(OC)c1	.	1%	4%	.	?	-11%	22%	.
Cc1ccc(S(=O)(=O)N2CCCOC2CNC(=O)C(=O)NCCCn2ccnc2)cc1 (stereo not given)	1.3%	10%	7%	-15%	1%	-13%	0%	0%
CCCNC(=O)NC(=O)CSc1ccc2c(c1)OCCO2	2.6%	-14%	20%	-13%	9%	3%	3%	4%
Cn1c(=O)c(=O)n(C)c2cc(N3CCOCC3)c(NS(=O)(=O)c3ccc([N+](=O)[O-])cc3)cc21	.	-6%	.	.	6%	3%	.	0%
C=CC[n+]1c(/C=C2\C=Cc3cc(C)ccc3N2CC)ccc2ccccc21	.	-25%	7.3µM*	.	?	?	4.1µM*	.
COc1cc(-c2noc(CCCC(=O)NCc3ccco3)n2)cc(OC)c1OC	0.1%	-11%	1%	-4%	31%	-1%	0%	2%
CCn1c(CNC(=O)c2ccc(OC)cc2)nnc1SCC(=O)Nc1ccc(C)cc1	3.9%	.	14%[46.1 µM]	6%	.	19%	17%[46.1 µM]	.
CC1CN(C(=O)c2cc3cc(Br)ccc3[nH]2)CC(C)O1 (stereo not given)	.	-2%	1%	.	13%	58%[activator]	5%	-1%
